Screening results (PubChem BioAssay)
PMP22 txn – modulates PMP22 transcription in S16 Schwann cells. S16 Pmp22-F2sN Schwann cells (luciferase reporters placed in the Pmp22 gene), FLuc/NLuc coincidence luminescence, 24 h. Potency, µM (top dose mostly 57.5 µM), for the others: top-dose activity change, negative = inhibition, usual class: inhibitors. 43,000 tested, 2% active; active = clear falling dose curves in both reporters; inconclusive = both reporters move, but less clearly or upward; inactive = either reporter flat; the % is the NLuc reporter signal; also: % is scaled to controls: 0 for no effect and ±100 for the full control effect; some results filed as inactive show a strong effect at the top dose
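qHTS, 1536-well. Cells seeded, compounds added by pin tool, 24 h 37C. Nano-Glo reagent 1 (lysis/FLuc), 10 min RT, read; Stop&Glo, 10 min RT, read NLuc.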
HTT promoter inh – inhibitors of huntingtin promoter activity. HEK293 HTT promoter firefly luciferase reporter (activity 0% = vehicle and -100% = no light), 24 h. Potency, µM (top dose mostly 57.5 µM), without a hit: at the highest dose activity change, negative = inhibition, usual class: inhibitors. 48,000 tested, 0.93% active. AID 1508623; active = well fitted inhibition curve with a large enough effect; inconclusive = small, poorly fitted or top-dose-only effect; inactive = no such curve, though single readings can be large or run the other way; also: nearly all actives have a fitted effect of over 50% in size
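HEK293 cells carrying firefly luciferase reporters were seeded at 2,500 per well in Opti-MEM and cultured for 24 h. They were then treated with compounds at up to 57.5 uM final for 24 h at 37 degrees C before Dual-Glo luminescence readout.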
* hit, by the source's call; ? = inconclusive; . = no result given; [ ] = remark or other dose. Potency is read from the fitted curve at half-maximal effect. Only part of the results is shown (hit frequency here may not be typical).

item	SMILES	PMP22 txn	HTT promoter inh
1	COc1ccccc1-c1nc2c(c(SCc3ccc(F)cc3Cl)n1)Cc1c(CO)cnc(C)c1O2	6%	-5%
2	CCCOc1ccn2c(C(C)=O)cc(-c3ccccc3S(C)(=O)=O)c2c1	.	2%
3	COc1cccc(-n2c(=O)c3c(C)c(C(=O)N(C)C)sc3n(CC(=O)Nc3ccc(C)cc3Cl)c2=O)c1	?	-9%
4	Cc1ccc(/C=C(\C#N)c2nc(-c3cc4c(ccc5ccccc54)oc3=O)cs2)cc1	0%	-14%
5	CN(C)C(=O)Nc1ccc(Cl)c(Cl)c1	.	5%
6	CCC(Sc1nc2ncccc2[nH]1)C(=O)Nc1cccc(OC)c1 (configuration not stated)	-28%	-21%
7	CCOc1ccccc1N(CC)C(=O)c1cc2c(=O)[nH]c3ccc(C)cc3c2s1	?	2.5µM*
8	CC1CCC(NC(=O)c2ccc3c(c2)N(Cc2ccccc2F)C(=O)c2ccccc2S3(=O)=O)CC1 (configuration not stated)	-21%	18%
9	O=C(Nc1nnc(S(=O)(=O)N2CCCCCC2)s1)c1ccc(Br)cc1	2%	-9%
10	O=C(CCCCn1c(=O)c2ccccc2n(CC(=O)Nc2ccc(F)cc2F)c1=O)NCCc1ccccc1	-15%	5%
11	CC(C)Cn1cc(NC(=O)N2CCN(c3ccc(F)cc3)CC2)c2ccccc2c1=O	10%	-6%
12	CCOc1ccccc1NC(=O)Cn1c(=O)n(Cc2ccc(OC)cc2)c(=O)c2oc3ccccc3c21	25%	-4%
13	O=c1c2c3c(sc2nnn1Cc1ccc(F)cc1)CCCC3	-1%	-28%
14	Cc1cccc(NC(=O)CSc2nc(-c3ccccc3Cl)nc3c2Cc2c(CO)cnc(C)c2O3)c1C	-11%	-13%
15	COc1cc(NC(=O)Cn2c(=O)n(Cc3ccco3)c(=O)c3sc4ccccc4c32)cc(OC)c1	-20%	-9%
16	CC1=C(C(=O)Nc2cc(Cl)ccc2C)C(c2cccs2)n2ncnc2N1 (configuration not stated)	-22%	-2%
17	CC(=O)N1CCc2c(sc3c2c(=O)n(-c2ccccc2)c(=O)n3CC(=O)c2ccc(Cl)cc2)C1	-16%	-6%
18	COc1cc(Cl)c(C)cc1NC(=O)CSCc1nc(-c2ccc(OC)c(OC)c2)no1	-22%	-18%
19	CCN(CC)CCNC(=O)c1ccc(CSc2nc3ccncc3n2Cc2cccc(F)c2)cc1	2%	-3%
20	Cc1ccccc1Cn1c(SCc2ccc(C(=O)N3CCCCC3)cc2)nc2ccncc21	-37%	?
21	CCOc1cc(-c2nnc(SCC(=O)Nc3ccc(F)c(F)c3)nc2-c2ccc(OC)c(OCC)c2)ccc1OC	?	17%
22	Cc1ccccc1NC(=O)CSc1nc2ccccc2c2nc(CCn3cncc3C)nn12	-11%	11%
23	CCCCCCCCCCCCCCCCO	.	-5%
24	COC(=O)c1ccc(Cl)cc1NC(=O)NCc1c(-n2cccc2)sc2c1CCCC2	11%	-9%

3 entries from above, with values under each structure:
Order of results – PMP22 txn	HTT promoter inh
[22] Cc1ccccc1NC(=O)CSc1nc2ccccc2c2nc(CCn3cncc3C)nn12
→ -11%	11%
[23] CCCCCCCCCCCCCCCCO
→ .	-5%
[24] COC(=O)c1ccc(Cl)cc1NC(=O)NCc1c(-n2cccc2)sc2c1CCCC2
→ 11%	-9%

The list goes on:
item	SMILES	PMP22 txn	HTT promoter inh
25	COc1ccc(CNC(=O)CCC2N=C3c4ccccc4N=C(SCC(=O)NCCc4ccc(OC)c(OC)c4)N3C2=O)cc1 (configuration not stated)	-24%	-14%
26	Cc1cc(-c2nc3ncccc3o2)ccc1NC(=O)c1ccc(Br)cc1	-2%	-9%
27	CCOc1ccc(NC(=O)CCCc2nnc3n(C)c(=O)c4sccc4n23)cc1	0%	-13%
28	Cc1ccc(O)c(-c2ccnc3cc(-c4ccc(Cl)cc4)nn23)c1	?	-12%
29	CCOc1ccc(NC(=O)Cn2c(=O)n(Cc3nc(-c4ccccc4)no3)c(=O)c3ccccc32)cc1	-7%	-14%
30	Cc1ccc(Cl)cc1N1CCN(C(=O)c2ccc(C)c(-n3c(C)nc4cccnc43)c2)CC1	19µM*	?
31	CCCOc1ccc(C2c3c(-c4ccccc4O)n[nH]c3C(=O)N2CCc2ccccc2)cc1OCC (configuration not stated)	?	?
32	COc1ccc(CNC(=O)C2CCN(S(=O)(=O)c3c(C)noc3/C=C/c3ccccc3F)CC2)cc1	6%	-23%
33	COc1ccc(C(=O)CC2(O)C(=O)N(Cc3cccc(C(F)(F)F)c3)c3ccccc32)cc1 (configuration not stated)	?	?
34	COc1cccc(-c2nc(SCC(=O)NCC3CCCO3)c(-c3ccc(F)cc3)[nH]2)c1 (configuration not stated)	-4%	-20%
35	COc1cccc(CNC(=O)c2ccc3c(c2)c(C)c(C)n3Cc2ccccc2)c1OC	-2%	-5%
36	Cc1ccc(C)c(N2CCN(C(=O)c3cccn3-c3nnc(N4CCCCC4)s3)CC2)c1	?	?
37	COc1ccccc1C(=O)N1c2ccccc2C(C)(c2ccc(Cl)cc2)CC1(C)C (configuration not stated)	?	25µM*
38	CCC(C(=O)NCc1ccccc1)n1nc(C)c2sc3ccccc3c2c1=O (configuration not stated)	17%	-9%
39	O=C(CSc1oc(-c2ccco2)nc1S(=O)(=O)c1ccc(Cl)cc1)Nc1ccc(F)cc1	?	-18%
40	C[C@@H]1CCC[C@H](C)N1	.	1%

Compound profiles, as listed above. Screens in order: PMP22 txn | HTT promoter inh
Listed for COc1cccc(CNC(=O)c2ccc3c(c2)c(C)c(C)n3Cc2ccccc2)c1OC → -2% | -5%
Listed for C[C@@H]1CCC[C@H](C)N1 → . | 1%

The results go on:
item	SMILES	PMP22 txn	HTT promoter inh
41	CCc1ccccc1NC(=O)C1CCCN(C(=O)c2cnn(-c3ccccc3)c2-n2cccc2)C1 (configuration not stated)	1%	-28%
42	CCn1c(=O)sc2cc(NC(=O)c3cccc(OC)c3)ccc21	-19%	13%
43	COc1ccc(-c2nc3sc(CCNC(=O)C(=O)Nc4cc(C)cc(C)c4)c(C)n3n2)cc1	-3%	-1%
44	CCn1c(=O)c2sccc2n2c(CCC(=O)N3CCN(c4ccc(C(C)=O)cc4)CC3)nnc12	15%	-7%
45	CCOc1ccc(C2c3[nH]c4ccccc4c3CCN2C(=O)CCC2CCCC2)cc1 (configuration not stated)	-28%	-26%
46	Cc1ccc(NC(=O)Cn2cnc3c(oc4ccccc43)c2=O)cc1	?	20%
47	COc1cccc(N2CC(NC(=O)c3cc(Cl)ccc3OC)CC2=O)c1 (configuration not stated)	?	-26%
48	CCOC(=O)Cc1ccc(NC(=O)Nc2cc3c(cc2N2CCCCC2)n(C)c(=O)n3C)cc1	-13%	-15%
49	CCOc1ccc(/C=C/c2nc(C#N)c(NC(C)c3ccccc3)o2)cc1 (configuration not stated)	-2%	-3%
50	Cc1nc(Oc2ccc(F)cc2Cl)c2oc3ccccc3c2n1	?	?
51	CC(=O)c1ccc(N2CCN(S(=O)(=O)c3cc(-c4noc(C)n4)ccc3C)CC2)cc1	-5%	-2%
52	CC(C)C1C(=O)Nc2ccc(S(=O)(=O)NCc3ccc(Cl)cc3)cc21 (configuration not stated)	?	?
53	COc1ccc2nc(NC(=O)c3ccc(S(=O)(=O)N4CCCC(C)C4)cc3)sc2c1 (configuration not stated)	-1%	?
54	COc1cc(Cl)c(C)cc1NC(=O)c1ccc(CN2C(=O)CCn3nc(C)cc32)cc1	4%	-21%
55	CCS(=O)(=O)N1CC(=O)N(c2ccc(Cl)cc2)C(C)(C(=O)NC2CCCCC2)C1 (configuration not stated)	-6%	5%
56	COc1ccc(C(=O)CCC(=O)Nc2ccc(F)cc2F)cc1	14%	-18%
57	Cc1cc(C)cc(NC(=O)CSc2nc3sc4c(c3c(=O)[nH]2)CCCC4)c1	-30%	-13%
58	Cc1ccc(C)c(CSc2cn(CC(=O)N3CCCCCC3)c3ccccc23)c1	?	?
59	CCCCC(=O)N(c1ccc2oc(C)c(C(C)=O)c2c1)S(=O)(=O)c1ccc(F)cc1C	-13%	-41%
60	Cc1ccc(N2CCN(C(=O)c3c4c(nc5ccccc35)C(=O)N(C3CCCCC3)C4)CC2)c(C)c1	?	-5%
61	CCOC(=O)c1c(NC(=O)Cc2coc3ccc(CC)cc23)sc2c1CCC2	3%	?
62	CCOc1ccccc1NC(=O)C(C)Sc1nc2c(c(=O)[nH]1)CCCC2 (configuration not stated)	-10%	-3%
63	CCCCOc1ccccc1NC(=O)Cn1c(-c2cncs2)nc2ccccc21	8%	-16%
64	CCn1cc(C(=O)NCCc2ccc(C)cc2)c(=O)c2cc(S(=O)(=O)N(C)C)ccc21	-5%	-6%
65	COc1ccc(-c2noc(CSCC(=O)Nc3ccc(C)cc3Br)n2)cc1OC	1%	-16%
66	CCCn1c(=O)c2sccc2n2c(CCCC(=O)Nc3ccccc3F)nnc12	-14%	-11%
67	COc1ccc(C(CNC(=O)c2oc3cc(C)c(Cl)cc3c2C)N2CCCCC2)cc1 (configuration not stated)	-6%	-2%
68	O=C(Cn1nc(-c2ccccc2)c2cnc3ccccc3c21)Nc1ccccc1	-17%	-5%
69	COc1ccc(NC(=O)NCCn2nnc3cc(S(=O)(=O)N(C)C)ccc32)cc1	5%	-18%
70	CCn1c(C(=O)NCc2cccc(Br)c2)cc2oc3ccccc3c21	-9%	?
71	O=C(O)c1cc(O)c(O)c(O)c1	.	-3%
72	CCOc1ccccc1CNC(=O)C1CCN(C(=O)N2CC(CC)Oc3ccc(C)cc32)CC1 (configuration not stated)	?	?
73	CCCCOc1ccc(C(=O)NCC(c2ccc(Cl)cc2)N2CCOCC2)cc1 (configuration not stated)	7%	-6%
74	COc1ccc2c(c1)c1c(c(=O)n(-c3ccc(F)c(Cl)c3)c(=O)n1CC(N)=O)n2C	-8%	-4%
75	Cc1ccccc1C(=O)NCC(c1ccc(N(C)C)cc1)N1CCCC1 (configuration not stated)	-8%	35%[activator]
76	Cc1cc(C)cc(C(=O)n2nc(C)c(S(=O)(=O)N3CCCCCC3)c2C)c1	-9%	-13%
77	Cc1ccccc1NC(=O)Nc1cccs1	-51%	-6%
78	CCCOc1ccc(NC(=O)CC2C(=O)N(c3ccc(C)cc3)C(=O)N2C2CCCC2)cc1 (configuration not stated)	-80%	17%
79	COc1ccccc1CN1CCNC(=O)C1=O	0%	-4%
80	CCc1ccccc1-n1nnc(-c2nc(-c3ccccc3F)no2)c1C	?	-12%
81	COc1ccc(OC)c(CCNC(=O)c2ccc3c(c2)N(Cc2ccc(C)cc2)CCS3)c1	?	?
82	CCc1cccc(CC)c1NC(=O)C1CCC(CNS(=O)(=O)c2cccc3nsnc23)CC1 (configuration not stated)	4%	?
83	Clc1ccc(-c2noc3ncnc(N4CCCCC4)c23)cc1	12µM*	-29%
84	CCOc1ccc(CCNC(=O)c2cccc(-n3c(C)nc4cccnc43)c2)cc1	?	?
85	CCc1ccc(NC(=O)C2CCCN2S(=O)(=O)c2ccc3c(c2)CCCC(=O)N3)cc1 (configuration not stated)	-101%	?
86	CCOc1ccc(NC(=O)NCCc2c(C)nn(C)c2C)cc1	10%	11%
87	CC(C)c1ccc(OCc2cc(=O)n3c(-c4ccccc4)csc3n2)cc1	-3%	-16%
88	COc1ccc(S(=O)(=O)N(CC(=O)NCCc2ccccc2)c2ccc(Cl)cc2)cc1	-3%	-14%

Arranged by heavy-atom count (lowest first): some entries from above
item	SMILES	PMP22 txn	HTT promoter inh
55	CCS(=O)(=O)N1CC(=O)N(c2ccc(Cl)cc2)C(C)(C(=O)NC2CCCCC2)C1 (configuration not stated)	-6%	5%
30	Cc1ccc(Cl)cc1N1CCN(C(=O)c2ccc(C)c(-n3c(C)nc4cccnc43)c2)CC1	19µM*	?
21	CCOc1cc(-c2nnc(SCC(=O)Nc3ccc(F)c(F)c3)nc2-c2ccc(OC)c(OCC)c2)ccc1OC	?	17%

Other records
item	SMILES	PMP22 txn	HTT promoter inh
89	COc1ccc(CCNC(=O)c2ccc3c(c2)N=C(C)c2ccccc2S3)cc1OC	?	?
90	Cc1ccc2c(c1)C(Cc1ccccc1F)C(=O)N2 (configuration not stated)	-8%	-19%
91	COc1ccc(-c2cc(C(C)=O)c(C)n2CCC(=O)Nc2cccc(C)c2C)cc1	3%	-22%
92	COc1ccc(-c2cc(-c3ccc4c(c3)NC(=O)CO4)nc3c2COc2ccc(C)cc2-3)cc1	-12%	-11%
93	CN(C)S(=O)(=O)c1ccc2c(c1)C(=Cc1cc3c([nH]1)CCCC3)C(=O)N2	.	?
94	CC(C)(C)C1CCc2c(sc(NC(=O)c3cc(-c4ccc(F)cc4)on3)c2C#N)C1 (configuration not stated)	3%	15%
95	CC1=C(C(=O)OCC2CCCCC2)C(c2ccc(Cl)cc2)CC(=O)N1 (configuration not stated)	?	?
96	Cc1nc2nc(SCC(=O)N(C)Cc3ccccc3)nn2c(C)c1Cc1ccccc1Cl	-15%	-18%
